Screening data from PubChem.
HPGD inh: inhibitors of human 15-hydroxyprostaglandin dehydrogenase (HPGD); AID 894; P15428; purified HPGD, NADH fluorescence kinetic, PGE2 substrate; Potency, µM, without a hit: top-dose activity change, negative = inhibition, usual class: inhibitors; 4.3% of 150,000 active; active = well fitted inhibition curve with a large enough effect (not every such curve was filed as active); inconclusive = small, poorly fitted or top-dose-only effect, or another doubt; inactive = no such curve, though single readings can be large or run the other way;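 note: top concentration of the series not given in the record; plate controls included wells without enzyme; inactives centre near -10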
Target sequence (P15428 whole entry, looked up): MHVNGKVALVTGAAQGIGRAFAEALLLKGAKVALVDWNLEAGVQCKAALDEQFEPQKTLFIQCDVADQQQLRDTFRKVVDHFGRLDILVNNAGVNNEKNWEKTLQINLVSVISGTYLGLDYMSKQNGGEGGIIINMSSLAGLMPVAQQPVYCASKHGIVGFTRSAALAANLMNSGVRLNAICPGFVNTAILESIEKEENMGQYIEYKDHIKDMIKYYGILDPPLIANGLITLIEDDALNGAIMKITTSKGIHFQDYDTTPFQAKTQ
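20 nM HPGD preincubated 15 min at room temperature with compound in 50 mM Tris-HCl pH 8, 0.01% Tween 20. Started with 1 mM NAD+ and 30 uM prostaglandin E2; NADH fluorescence (360/450 nm) read 5 times over 30-s intervals, last minus first.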
* hit, by the source's call; ? = inconclusive; & = joins results of further samples. % is set by controls: 0 for no effect and ±100 for the full control effect; potency is the fitted concentration of half-maximal effect. The list is partial; rates above refer to the full screens.

cpd	HPGD inh	SMILES
1	-16%	CC1CCCN(C(=O)CSCC(=O)Nc2nc(-c3cccs3)cs2)C1 (stereo not given)
2	-9%	O=C(NCc1ccc(F)cc1)C1CCCN(S(=O)(=O)c2cccc3nsnc23)C1 (stereo not given)
3	?	COc1ccc(-c2nc(C#N)c(NCC3CCCO3)o2)cc1 (stereo not given)
4	-7%	Cc1cccc(NC2=NC(=S)N(CC#N)C23CCCCC3)c1
5	-15%	O=C(Nc1ccc(C(O)(C(F)(F)F)C(F)(F)F)cc1)c1ccc(Cl)c([N+](=O)[O-])c1
6	?	Cc1ccc(OCC(=O)Sc2ccc(C)cc2)cc1
7	-4%	COc1cc(C(=O)N(CCc2ccccc2)C2CC3CCC(C2)N3C)cc(OC)c1OC (stereo not given)
8	-7%	CCOc1ccc(NC(=O)C2CSC(c3ccncc3)=N2)cc1 (stereo not given)
9	-16%	COc1cc(-c2nc3n(n2)C(c2cccc(OC)c2OC)C2=C(CCCC2=O)N3)cc(OC)c1OC (stereo not given)
10	-5%	CCN(CC)c1ccc2c(c1)OC(N)=C(C#N)C2c1cccnc1 (stereo not given)
11	-27%	CCOc1ccc(Cc2c(Cl)nc(SC)nc2N(C)C)cc1
12	-4%	CC(CCCC(C)(C)O)NCCO (stereo not given)
13	-20%	Cc1ccccc1NC(=O)CC1(c2ccc(N(C)C)cc2)C(=O)c2ccccc2C1=O
14	-13%	CNS(=O)(=O)c1ccc(N2CCCC2=O)c([N+](=O)[O-])c1
15	-10%	CCS(=O)(=O)N1CCC(NC(=O)c2cc(OC)cc(OC)c2)CC1
16	-7%	CCOC(=O)N1CCC(NC(=O)c2ccc(CS(=O)(=O)c3ccc(OC)cc3)o2)CC1
17	?	CCc1[nH]c(=O)c(C#N)c2c1CSC(C)(C)C2
18	-15%	S=c1[nH]nc(-c2cccnc2)n1/N=C/c1cccs1
19	28µM*	CC1=C(C(=O)OC(C)C)C(c2cccc([N+](=O)[O-])c2)n2c(cc(=O)[nH]c2=S)N1 (stereo not given)
20	-11%	COc1ccccc1OCC(=O)N1CCNC1=O
21	-14%	O=C(O)c1ccc(NC(CSCc2cccc(F)c2)C(=O)O)c([N+](=O)[O-])c1 (stereo not given)
22	-10%	CC1CN(CN2C(=O)c3ccccc3C2=O)CC(C)O1 (stereo not given)
23	1%	CCCN(CCC)S(=O)(=O)c1ccc(N2CCCC2=O)c([N+](=O)[O-])c1
24	-13%	Cc1cc(C)cc(NC(=O)C2(c3ccccc3)CC2(Cl)Cl)c1 (stereo not given)
25	-7%	CCCn1c(SCC(=O)/C(C#N)=C(\C)N)n[nH]c1=O
26	?	CCOc1cc(/C=C(/C#N)c2ccc(F)cc2)ccc1OCc1ccc(C(=O)O)o1
27	-2%	COc1ccc(N2C(=O)CCC(C(=O)O)C2c2ccc(OC)c(OC)c2)cc1 (stereo not given)
28	-17%	CSCCC(NC(=O)c1cncc(Br)c1)C(=O)O (stereo not given)
29	28µM*	CCOC(=O)C1CCCN(C(=O)c2cc(-c3ccccc3)on2)C1 (stereo not given)
30	-18%	Cc1cc(OCC(=O)N2CCc3ccccc3C2)c2c(-c3ccccc3)cc(=O)oc2c1
31	-5%	Cc1cc(C)n(-c2c(F)c(F)c(CN3CCOCC3)c(F)c2F)n1
32	2%&2%&-7%&-3%	Cn1c(=O)c2c(ncn2C)n(C)c1=O

Shown as a hit in HPGD inh, among the entries above:
cpd	HPGD inh	SMILES
19	28µM*	CC1=C(C(=O)OC(C)C)C(c2cccc([N+](=O)[O-])c2)n2c(cc(=O)[nH]c2=S)N1 (stereo not given)
29	28µM*	CCOC(=O)C1CCCN(C(=O)c2cc(-c3ccccc3)on2)C1 (stereo not given)

5 records drawn at random from the list so far, as already listed:
cpd	HPGD inh	SMILES
31	-5%	Cc1cc(C)n(-c2c(F)c(F)c(CN3CCOCC3)c(F)c2F)n1
13	-20%	Cc1ccccc1NC(=O)CC1(c2ccc(N(C)C)cc2)C(=O)c2ccccc2C1=O
8	-7%	CCOc1ccc(NC(=O)C2CSC(c3ccncc3)=N2)cc1 (stereo not given)
10	-5%	CCN(CC)c1ccc2c(c1)OC(N)=C(C#N)C2c1cccnc1 (stereo not given)
25	-7%	CCCn1c(SCC(=O)/C(C#N)=C(\C)N)n[nH]c1=O

The listing continues:
cpd	HPGD inh	SMILES
33	-15%	CC(C)C(=O)NC(=S)Nc1ccc(S(=O)(=O)N2CCN(C)CC2)cc1
34	?	O=C(O)CCc1nc(-c2ccccc2)c(-c2ccccc2)o1
35	?	Cc1ccc(C)c(OCCn2cc(/C=C(\C#N)C(=O)NCC3CCCO3)c3ccccc32)c1 (stereo not given)
36	-15%	COC(=O)c1ccccc1NC(=O)c1cncc(Br)c1
37	-14%	COc1ccc(/C=C(/NC(=O)c2ccccc2)C(=O)N/N=C/c2ccncc2)cc1
38	-2%	COc1cccc(S(=O)(=O)Nc2cccnc2)c1
39	-7%	CNC1=C(N(C(C)=O)c2ccc(Br)cc2)C(=O)c2ccccc2C1=O
40	16µM*	O=C(OCc1nc2ccccc2s1)c1ccc(Br)s1
41	-12%	COC(=O)[C@@]1(Cc2ccccc2)[C@H]2c3cc(C(=O)N4CCCC4)n(Cc4cc(F)cc5c4OCOC5)c3C[C@H]2CN1C(=O)c1ccccc1
42	-6%	O=C(CCc1nc2ccccc2c(=O)[nH]1)Nc1ccc(Cl)c(Cl)c1
43	?	COc1ccc(C(=O)Nc2ccccc2C(=O)NC(Cc2ccc(O)cc2)C(=O)NNC(=O)c2ccccc2Cl)cc1 (stereo not given)
44	-17%	O=C(COc1ccc(Br)cc1Br)NC(=S)N1CCCc2ccccc21
45	-11%	Clc1ccc(C2=CSC3=NCCN23)cc1Cl
46	-1%	CCN1/C(=C/c2cc[n+](C)cc2)C=Cc2cc(C)ccc21
47	0%	Cc1nnc(NC(=O)CSc2nccn2C)s1
48	-10%	CC(=O)c1cccc(NC2c3ncccc3C(=O)N2Cc2ccco2)c1 (stereo not given)
49	?	CCCCCCn1c(N(CC)CC)nc2c1c(=O)[nH]c(=O)n2C
50	-2%	CN(CCC#N)S(=O)(=O)c1ccc2c(c1)c(=O)n(C)c(=O)n2C
51	2%	O=C(NCc1ccco1)C(c1cccnc1)N(C(=O)Cn1nnc2ccccc21)c1ccc(F)cc1 (stereo not given)
52	?	N#Cc1ccc(CSc2ncnc3c2cnn3Cc2ccccc2)cc1
53	-20%	COc1ccc(N2C(=O)[C@H]3CCC=C[C@H]3[C@@H]2c2ccccc2Br)cc1
54	2%	C1CCC2(CC1)C1=C(CCCC1)Nc1nnnn12
55	-9%	CC(=NCCCN(C)C)C1=C(O)c2ccccc2C1=O
56	?	COc1ccc(-c2nnc3sc(-c4ccccc4OC)nn23)cc1
57	-17%	Cc1nc(NC(N)=S)sc1C(=O)Nc1ccccc1
58	-12%	O=C(N/N=C\c1cccc([N+](=O)[O-])c1O)C1COc2ccccc2O1 (stereo not given)
59	4%	CCOC(=O)c1ccc(NC(=O)NCc2ccn(CC)n2)cc1
60	?	CC1CCN(c2ccccc2NC(=O)c2ccc(F)cc2)CC1
61	?	Fc1ccc(-c2nc3ccccc3c3nc4ccccc4n23)cc1
62	-28%	Cc1cc(C)nc(SCc2cc(=O)c(OC(=O)c3ccc(S(=O)(=O)N(C)C)cc3)co2)n1
63	-26%	CC1CC(=O)c2cn3c(nc2C1)nc1ccccc13 (stereo not given)
64	?	CCCn1c(=O)[nH]c2nc(-c3ccc(S(=O)(=O)O)cc3)[nH]c2c1=O
65	?	CCCCn1c(=O)nc2n(-c3ccccc3)c3ccccc3cc-2c1=O
66	-4%	Cc1ccc(-c2noc(CSc3nnc(-c4ccccc4)n3C)n2)cc1
67	?	COC(=O)c1c(NC(=O)CN2CCN(c3ccccc3OC)CC2)c2cc(C)ccc2n1C
68	-3%	O=S(=O)(CC(O)COc1ccccc1Cl)c1ccccc1 (stereo not given)
69	?	Cn1c(=O)c(=O)n(C)c2cc(S(=O)(=O)N3CCN(c4ccccc4F)CC3)ccc21
70	16µM*	CN(C)C(=O)c1ccc(-c2nc(NCc3cccnc3)c3ccccc3n2)cc1
71	?	O=C(CSc1ccccc1)Nc1ccc(S(=O)(=O)NCC2CCCO2)cc1 (stereo not given)
72	-1%	O=C(Nc1nncs1)c1cccc(S(=O)(=O)N2CCOCC2)c1
73	-19%	O=C(c1ccc(Cl)cc1)N1CCC(c2nc(-c3cccs3)no2)CC1
74	-16%	Nc1ccc(C(=O)N/N=C\c2cc(N=Nc3cccc4ccccc34)ccc2O)cc1
75	25µM*	O=C(CSc1nnc(-c2ccccc2Cl)o1)N1CCCCC1
76	-5%	O=C(O)c1ccc(-n2nnnc2Oc2cccc3cccnc23)cc1
77	-12%&-14%&-7%	CCCc1c(OCCCCc2nn[nH]n2)ccc(C(C)=O)c1O
78	-13%	Cc1cc(C)c(C#N)c(SCc2[nH]nc3c2C(c2ccccc2)C(C#N)=C(N)O3)n1 (stereo not given)
79	-14%	Cc1cccc(OCCCC(=O)Nc2ccccc2C(F)(F)F)c1
80	?	COc1ccc(CCN(Cc2nc3ccccc3c(=O)[nH]2)C(=O)c2ccco2)cc1OC
81	-10%	COC(=O)C1=C(C)N(c2ccc(F)cc2)C(=O)C1
82	?	O=S(=O)(Nc1cccc2ccccc12)N1CCCC1
83	-10%	Cc1cc(C(=O)NCc2cc(C(=O)O)oc2C)c(C)o1
84	-10%	COC(=O)c1ccc(C(NC(=O)OCc2ccccc2)/C(C)=C/[C@@H](C)C(=O)N2CCN(C)CC2)cc1 (stereo not given in full)
85	1%	Cc1noc(N)c1C(=O)Nc1ccc(F)c(Cl)c1
86	-7%	Fc1c(F)c(F)c(N=Cc2ccc3ncccc3c2)c(F)c1F
87	-6%	N#CC1=C(S)N(c2ccc(F)cc2)C(c2cccs2)NC1=O (stereo not given)
88	-7%	CCC(C)Nc1nc(-c2ccc3c(c2)NC(=O)CO3)cs1 (stereo not given)

(cont.)
cpd	HPGD inh	SMILES
89	-14%	CC(=O)c1ccc(Nc2c3c(c(C#N)c4nc5ccccc5n24)CCC3)cc1
90	-14%	C(=N\n1cnnc1)/c1cccnc1
91	2%	CCOc1cc(C2NC(=O)NC(C)=C2C(=O)NCc2ccccc2)c(Cl)cc1O (stereo not given)
92	0%	COC(=O)c1cc(OC)c(OCc2cc(C(=O)OC)oc2C)c(OC)c1
93	-16%	CCOC(=O)c1nn(-c2cccc(C)c2)c2nnc(Cc3ccc(C)cc3)c(=O)n12
94	-11%	CCOC(=O)C1=C(C)NC2=C(C(=O)c3ccccc32)C1c1ccc(O)cc1 (stereo not given)
95	-8%	O=C(OC1CCN(c2ncc(C(F)(F)F)cc2Cl)CC1)c1ccc(Cl)cc1
96	32µM*	COC(=O)C(Cc1c[nH]c2ccccc12)NC(=O)c1cc(-c2ccc(OC)c(OC)c2)oc1C (stereo not given)
97	-16%	C#CCOCCOCCOCCNc1nc(N2CCN(C(=O)[C@H](CCCCN)n3cc(CCCC)nn3)CC2)nc(N2CCN(C(=O)[C@H](Cc3ccc(O)cc3)n3cc(CCO)nn3)CC2)n1
98	-9%	c1ccc(CSc2nnc3c(n2)OC(c2ccco2)Nc2ccccc2-3)cc1 (stereo not given)
99	3%	CCOc1ccccc1N1CCN(C(=O)c2cc(C)oc2C)CC1
100	-4%	CCCCC(C)n1[nH]c(=O)cc1N (stereo not given)
101	-8%	Cc1nn(C)cc1CNC(=O)c1cccc(Cl)c1
102	-15%	CC(Sc1nncs1)C(=O)NCc1ccc2c(c1)OCO2 (stereo not given)
103	-8%	Cc1cc(NC(=O)c2cccc([N+](=O)[O-])c2)n(-c2ccccc2)n1
104	-4%	CN(CC(=O)Nc1ccccc1N1CCOCC1)S(=O)(=O)c1ccc(Cl)cc1

Continued; the last 7 above are carried over.
cpd	HPGD inh	SMILES
98	-9%	c1ccc(CSc2nnc3c(n2)OC(c2ccco2)Nc2ccccc2-3)cc1 (stereo not given)
99	3%	CCOc1ccccc1N1CCN(C(=O)c2cc(C)oc2C)CC1
100	-4%	CCCCC(C)n1[nH]c(=O)cc1N (stereo not given)
101	-8%	Cc1nn(C)cc1CNC(=O)c1cccc(Cl)c1
102	-15%	CC(Sc1nncs1)C(=O)NCc1ccc2c(c1)OCO2 (stereo not given)
103	-8%	Cc1cc(NC(=O)c2cccc([N+](=O)[O-])c2)n(-c2ccccc2)n1
104	-4%	CN(CC(=O)Nc1ccccc1N1CCOCC1)S(=O)(=O)c1ccc(Cl)cc1
105	?	CCOC(=O)c1c(C)c(C(=O)NCc2cccs2)c(C)n1CC
106	-14%	Cc1ccc(Sc2nc3c(c(=O)[nH]c(=O)n3C)n2CCc2ccccc2)cc1
107	-15%	CCCCNC(=O)Nc1c(C(=O)OC)[nH]c2ccc(C)cc12
108	3%	Cc1cc(C)[n+]2n1C(=O)C(c1ccccc1)=C2[O-]
109	-8%	COCCNC(=O)C(c1ccco1)N(C(=O)Cn1nnc2ccccc21)c1ccccc1C (stereo not given)
110	-4%	CC1CC2(C)Oc3ccccc3C3OCC1(COC(=O)Nc1ccccc1)C(C)C32 (stereo not given)
111	-5%	CCOC(=O)c1ccc(NC(=O)c2ccccc2[N+](=O)[O-])cc1
112	5µM*	COc1ccc(OC)c2c(=S)c3ccccc3[nH]c12
113	-10%	Cc1ccc(S(=O)(=O)NCCC(=O)NCc2ccco2)cc1
114	-11%	COc1cccc(NC(=O)Cn2nc(Cc3cccnc3)c3ccccc3c2=O)c1
115	-12%&-10%	COC(=O)Nc1nc2ccc(C(=O)c3ccccc3)cc2[nH]1
116	-2%	CCN(CC#CCC1(O)c2ccccc2-c2ccccc21)C(C)C
117	-7%	C/C(=N\N1CCN(Cc2ccc(C)cc2)CC1)c1ccco1
118	-9%	CN(C)c1ccc(N=Nc2ccccc2C(=O)OCC(=O)Nc2ccccc2C(F)(F)F)cc1
